Beta apoptosis – blocks beta cell apoptosis; INS-1E cytokine-induced death, ATP luminescence, 48 h; percent of positive-control rescue, neutral wells zero; protection from apoptosis, % (no concentration beside the values); actives 0.8% (n = 300,000); AID 435005;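 active = all replicates at 75% or more, or half of them and the mean; inconclusive = half reach 75% but not the mean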;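 also: 0% = cytokine-treated negative control wells and 100% = positive control rescue; higher means more ATP so stronger rescue from cytokine killing; wells of about 40 µL received 100 nL stock; the first replicate is given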
RanGTP-Imp inh – inhibitors of RanGTP-importin-beta interaction, primary screen, biochemical, FRET, CFP-Ran, YFP-importin-beta, homogeneous; cell-free CFP-Ran/YFP-importin-beta FRET ratio; inhibition, % (concentration not given with the values); actives 1.1% (n = 300,000); AID 2216;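 active = most replicates above 15%; inconclusive = exactly half above 15%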;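 also: 0% = DMSO wells and 100% = Ran loaded with GDP instead of GTP; wells of about 40 µL received 100 nL stock; the first replicate is given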
MLL AF4-AF9 inh – inhibitors of human MLL-AF4/AF9 interaction; P42568; AlphaScreen, biotin-AF4 peptide binding to FLAG-AF9; inhibition, % at 10 µM; actives 0.47% (n = 350,000); AID 651704;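 active = every replicate reaching a set inhibition limit, whatever the replicate mean, cut at about 25% in these data; inconclusive = mean inhibition reaches that limit but some replicates miss it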;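 also: 0% = plate neutral control median and 100% = total signal loss; the record names both 10 and 1 µM as test concentration; the first replicate is given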
Target sequence (P42568 whole entry, looked up): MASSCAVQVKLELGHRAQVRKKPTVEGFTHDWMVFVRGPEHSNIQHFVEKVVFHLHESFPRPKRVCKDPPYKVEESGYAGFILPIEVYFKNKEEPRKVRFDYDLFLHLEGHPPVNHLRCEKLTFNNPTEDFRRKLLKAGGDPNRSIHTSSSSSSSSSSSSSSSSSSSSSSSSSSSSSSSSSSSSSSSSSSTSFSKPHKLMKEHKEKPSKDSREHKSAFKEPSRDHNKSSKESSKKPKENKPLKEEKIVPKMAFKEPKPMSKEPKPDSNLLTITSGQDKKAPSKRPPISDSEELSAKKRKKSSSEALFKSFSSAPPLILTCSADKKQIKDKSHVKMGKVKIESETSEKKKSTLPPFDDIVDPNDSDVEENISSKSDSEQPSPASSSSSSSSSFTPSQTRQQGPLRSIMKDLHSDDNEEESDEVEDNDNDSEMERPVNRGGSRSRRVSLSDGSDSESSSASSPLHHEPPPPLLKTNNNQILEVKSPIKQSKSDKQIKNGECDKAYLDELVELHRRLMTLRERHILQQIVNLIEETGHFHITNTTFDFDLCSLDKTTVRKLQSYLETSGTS
T cruzi inh – blocks replication of Trypanosoma cruzi. T. cruzi beta-gal in NIH3T3, luminescence, 90 h. inhibition, % (test concentration not listed). actives 1.4% (n = 300,000);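 active = mean inhibition across valid replicates above about 55%, limit read from the data; inconclusive = mean below that limit but half or more replicates reach it; inactive = mean below it, under half of replicates reach it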;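 also: signal also drops with host cell toxicity which is not excluded here; 0% = plate median of DMSO wells and 100% = zero luminescence signal; higher percent means less beta-gal luminescence so fewer parasites; stock transfer was 50 nL into about 50 µL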
A1 inh – inhibitors of the anti-apoptotic protein A1, read as caspase activation; caspase activation, % (no concentration beside the values); MEF A1-2A-BIM cells, Caspase-Glo 3/7 luminescence, 3 h; percent of clofoctol response, vehicle zero; actives 0.066% (n = 330,000); AID 2462;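 active = over half of replicate activation scores above 10%, or exactly half above 10 with the replicate mean above 10; inconclusive = replicate mean below 10 yet half the replicates above 10; inactive = over half of replicates below 10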;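 also: wells of about 30 µL received 50 nL stock; many hits fall short of the cut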
Calb FLC – C. albicans growth modulation with fluconazole; growth inhibition, % (test concentration not listed); C. albicans CaCi-2 (fluconazole-resistant clinical isolate) + fluconazole, Alamar Blue growth, 48 h; actives 0.57% (n = 300,000);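 active = most replicates above 75%; inconclusive = exactly half above 75%; inactive = most below 75%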;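 also: all wells also contain fluconazole at 8 µg/ml as a sub-toxic cotreatment; 0% = median of DMSO wells and 100% = median of geldanamycin control wells; wells of about 8 µL received 7.5 nL stock; the first replicate is given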
Vif TR-FRET – inhibitors of Vif binding to APOBEC3G peptide, primary screen, biochemical, TR-FRET, GST-Vif 1-94, biotin-A3G peptide, dose response retest (AID 1117319); actives 0.57% (n = 260,000); inhibition, %, or IC50 in µM where a hit was titrated; TR-FRET GST-Vif / biotin-A3G peptide binding; higher % means a stronger effect; test concentration not given here; strong numbers were not always called active;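 active = above the screen mean plus three standard deviations and confirmed in dose response; inconclusive = results disagree or hit not tested in dose response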;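 also: Vif residues 1-94 fused to GST binding biotinylated APOBEC3G peptide 110-148; 0% = full assay without inhibitor and 100% = GST in place of GST-Vif; retest series ran down from 100 µM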
Ecoli rRNA inh – inhibits bacterial ribosomal RNA function over humanized ribosomes | E. coli WT GFP vs humanized-ribosome RFP mutants, fluorescence, 24 h; hits give low values; DMSO median 0, no signal -100 | GFP signal change (wild-type ribosome), % (test concentration not listed) | actives 1.6% (n = 350,000) | AID 720706;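 active = significant combined selectivity score with lowered wild-type GFP, culture density cut under 30%, mutant RFP and density less affected; inactive = any of these conditions unmet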; also: one replicate is shown; some compounds called inactive have numbers as strong as hits
Ecoli rRNA inh OD600 – recorded beside Ecoli rRNA inh, whose call it bears; OD600 change, %; measured here: OD600 growth;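 optical density of the mix in the first replicate; 0 = DMSO median and -100 = no signal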
Ecoli rRNA inh RFP – second read-out of Ecoli rRNA inh, no call of its own (marks repeat the call); RFP signal change, %; measured here: RFP humanized mutant strains;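 first replicate; 0 = DMSO median and -100 = no signal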
Numbers without * were called inactive; ? = inconclusive; / = not tested or not shown. Only part of the results is shown; the hit share may differ from the screen's.

SMILES	Beta apoptosis	RanGTP-Imp inh	MLL AF4-AF9 inh	T cruzi inh	A1 inh	Calb FLC	Vif TR-FRET	Ecoli rRNA inh	Ecoli rRNA inh OD600	Ecoli rRNA inh RFP
O=C(CCS(=O)(=O)Cc1ccccc1)N1CCN(c2ccc([N+](=O)[O-])cc2)CC1	-1.2	-0.2	-0.5	8.0	-0.2	1.2	-6.6%	3.2	2.6	-6.5
CC1CCC2(CC1)NC(=O)N(CC(=O)N1CCN(S(=O)(=O)c3ccccc3)CC1)C2=O (centres undefined)	2.9	-1.7	0.1	3.1	-0.4	-5.9	-5.8%	14.8	2.4	-1.6
CCCCNC(=O)c1cc2n(n1)C(C(F)(F)F)CC(c1ccccc1)N2 (centres undefined)	1.4	-0.2	/	-34.0	0.7	9.9	1.7%	/	/	/
COc1ccc(Cl)cc1NS(=O)(=O)c1cccc(C(=O)NCC(c2ccco2)N(C)C)c1 (centres undefined)	0.6	0.4	-5.6	-4.1	0.6	-1.4	/	-1.2	2.4	0.8
CC(C)(C)OC(=O)NNC(=O)C12CC3CC(CC(C3)C1)C2	-12.2	-0.4	-0.4	-6.8	0.1	29.4	1.3%	-2.6	-4.4	-2.1
CCOC(=O)C1=C(c2ccccc2)NC(=S)NC1C (centres undefined)	2.4	5.9	/	-7.2	0.6	-5.8	18.6%	/	/	/
COC(=O)c1ccccc1NC(=O)Nc1ccc(Br)cn1	-2.9	2.7	0.0	-10.2	0.8	-0.9	-5.9%	5.5	3.3	-2.1
Cc1cc(N2C(=O)C(O)=C(C(=O)c3cc4ccccc4o3)C2c2ccc(Br)cc2)no1 (centres undefined)	-1.2	46.9*	3.2	-7.5	5.0	40.4	/	-8.7	-16.4	3.7
O=C(CSc1nnc(-c2ccco2)o1)Nc1cccc([N+](=O)[O-])c1	-0.2	4.6	2.9	-3.9	1.2	-6.7	-4.4%	-8.7	4.0	-3.4
CCOC(=O)C(=O)Nc1nnc(CCc2ccccc2)s1	-0.6	-3.1	/	-11.8	0.6	-1.1	-2.2%	/	/	/
CCC(=O)Nc1nc2ccccc2n1Cc1ccccc1	4.2	-2.4	/	15.6	-0.2	-17.2	2.0%	/	/	/
CN1CCN(c2ccc(Cl)cc2NC(=O)CN2C(=O)NC(C)(c3ccccc3)C2=O)CC1 (centres undefined)	0.0	2.8	-2.2	27.1	0.3	-4.0	1.8%	3.5	5.9	-2.2
COc1ccc(/C=C2\SC(=O)N(CCNC(=O)C3CSC4(C)CCC(=O)N34)C2=O)cc1 (centres undefined)	-2.2	3.1	1.7	10.6	-0.4	10.6	-9.8%	-15.4	-19.0	-3.9
CCOC(=O)c1c(-c2ccccc2)csc1NC(=O)CSc1nnnn1C	4.7	5.7	/	22.0	-0.3	17.6	-2.7%	/	/	/
Cc1ccc(Cl)cc1NC(=O)CSc1nnc(C)n1-c1ccccc1	5.2	3.9	/	-14.4	-0.1	39.3	9.7%	/	/	/
CS(=O)Cc1cc(Sc2ccccc2)nc(-c2ccncc2)n1 (centres undefined)	-2.5	-0.1	0.5	13.1	0.1	5.8	-1.0%	0.0	-7.0	-3.1
NC(=O)c1ccc(NC(=O)COC(=O)/C=C/c2ccc3c(c2)OCO3)cc1	-7.6	3.4	3.0	-0.4	0.2	3.8	15.7%	6.2	1.8	-6.5
CCOc1ccccc1NC(=O)CN(C)S(=O)(=O)c1ccc2[nH]c(=O)oc2c1	3.6	-0.7	0.3	-9.8	-0.4	-4.7	?	-4.0	-11.3	-3.4
Cc1cc(C)cc(C(=O)OCC(=O)N2CCCC2)c1	-4.0	6.2	1.5	-11.1	0.3	-0.2	/	3.8	-4.8	-0.7
N#C/C(=C/c1ccc(N2CCCCC2)o1)c1cccc(F)c1	/	?	-0.7	55.6*	1.0	30.9	?	14.2	5.2	11.9
O=[N+]([O-])c1cc2c(cc1CN1CCN(c3ccccc3)CC1)OCO2	-5.6	-0.9	6.3	14.0	-0.3	-17.1	/	-1.5	6.2	-0.4
COc1ccc(/C=c2\sc3nc(-c4ccccc4OC)nn3c2=O)c(OC)c1	3.3	-7.8	/	-5.9	0.3	-13.6	9.3%	/	/	/
CCOc1ccc(-n2c(Cc3cc(=O)[nH]c(=O)[nH]3)nnc2SC(C)C(=O)OC)cc1 (centres undefined)	-2.3	3.0	-8.6	-8.5	0.4	-1.6	74.2%	5.3	14.4	4.4
CC(=O)Nc1nnc(-c2ccc3c(c2)CCCC3)o1	1.6	0.2	-12.6	-12.4	-0.6	13.9	3.3%	-2.7	-7.3	1.2
CC(=O)NC(Cc1ccccc1)C(=O)N1CCN(C(=S)NCC(C)C)CC1 (centres undefined)	-1.7	3.9	-2.1	2.7	2.1	8.0	-6.4%	10.6	14.6	1.9

Next results follow.
SMILES	Beta apoptosis	RanGTP-Imp inh	MLL AF4-AF9 inh	T cruzi inh	A1 inh	Calb FLC	Vif TR-FRET	Ecoli rRNA inh	Ecoli rRNA inh OD600	Ecoli rRNA inh RFP
CCN=C1S/C(=C\c2cn(CC(=O)NCc3ccco3)c3ccccc23)C(=O)N1CC	6.0	1.1	5.3	3.4	?	-2.1	/	10.9	13.7	2.2
O=C(NCc1cccnc1)Nc1cccc(F)c1	-3.8	-2.4	-1.3	-8.0	-2.1	-11.9	-1.3%	1.8	0.4	-0.4
COc1cccc(NC(=O)CN2C(=O)COc3ccc(C)cc32)c1	-3.1	-1.2	0.4	-6.8	0.6	-2.8	/	20.1	16.6	0.8
O=c1c2cnn(-c3ccc(F)cc3)c2ncn1Cc1ccc(F)cc1	-4.1	-2.4	/	-19.3	-0.4	-4.8	-2.8%	/	/	/
COc1ccc(-c2sc3ccc(OC)cc3c2-c2ccc(O)cc2)cc1	12.5	/	3.8	/	2.5	/	1.2%	/	/	/
COCCNC(=O)c1ccc(CS(=O)(=O)c2ccccc2)o1	3.4	1.3	/	3.0	-0.7	12.2	?	/	/	/
S=C(NCc1cccnc1)Nc1cccc2ccccc12	-2.1	1.7	-1.0	26.5	0.3	2.0	/	-27.4	-48.9	-11.5
Cc1csc(NC(=O)CSc2ccc([N+](=O)[O-])cn2)n1	-7.4	9.9	1.1	-4.9	-0.1	-12.2	-2.0%	-8.2	-10.4	-3.9
O=S(=O)(NCc1cccnc1)c1ccccc1	-6.4	1.4	/	1.8	-0.2	6.1	1.4%	/	/	/
Cc1cc(C)n(CC(O)Cn2ccc3ccccc32)n1 (centres undefined)	-5.8	-0.7	5.4	-11.0	-0.9	-6.5	3.4%	15.4	6.9	3.1
OCC1(Cc2ccccc2)CCCN(Cc2ccc3c(c2)OCCO3)C1 (centres undefined)	-2.0	-2.8	-2.0	1.5	0.0	-25.4	23.9%	15.9	15.8	0.3
CCCCOn1c(C)c(C(C)=O)c2c3no[n+]([O-])c3ccc21	10.2	-2.4	1.9	19.6	-0.2	-6.4	/	/	/	/
COc1ccc(Cl)cc1NC(=O)CN(C)C(=O)c1cc2ccccc2cc1OC	3.3	1.7	-4.3	12.8	-0.5	-1.3	-8.5%	-6.3	-10.4	-0.2
Cc1ccc(S(=O)(=O)C2(C(=O)NC3CCCC3)CC2)cc1	1.5	-0.7	/	-34.2	1.0	-2.1	27.1%	/	/	/
CCOc1cc(C(=O)Nc2cc3c(cc2N2CCOCC2)n(C)c(=O)n3C)cc(OCC)c1OCC	12.9	0.9	-2.9	14.6	-0.7	-0.9	3.1%	1.2	10.4	-5.6
CCOc1ccc(Nc2nc(NCC(=O)O)nc(N)c2[N+](=O)[O-])cc1	1.8	-6.7	0.2	-16.2	1.2	0.1	5.1%	-1.4	3.9	-1.2
CCOc1ccccc1NC(=O)COC(=O)C1CC(=O)N(c2c(C)cccc2C)C1 (centres undefined)	-2.3	-1.2	-0.7	-5.2	0.9	-6.1	-14.4%	1.2	-2.5	0.1
COc1ccc(C(N)CCc2ccco2)cc1 (centres undefined)	-4.0	5.4	/	4.7	0.3	5.8	-2.6%	/	/	/
COc1nsnc1NS(=O)(=O)c1ccc(NC(=S)NC(=O)c2cccnc2)cc1	-2.4	-2.6	-2.7	-0.9	-6.4	1.2	-9.3%	-48.0	-68.2	-14.1
Cc1ccc(NC(=O)N2C3CCCC2CC(NC(=O)C(C)(C)C)C3)cc1 (centres undefined)	-4.6	1.2	0.3	?	0.1	3.1	5.3%	3.4	0.2	2.5
O=C(CCn1c(=O)oc2ccccc21)n1c(=O)oc2ccccc21	-3.7	0.2	/	-4.9	-0.4	-5.4	-9.1%	/	/	/
COc1ccccc1CCC(=O)OCC(=O)NC1CC1	-1.5	-1.1	-9.1	-2.1	-0.7	-6.9	-10.3%	3.5	1.1	1.0
CCC(C)Sc1ccc([C@@H]2[C@H]3C(=O)N(C)C(=O)[C@H]3[C@]3(C(=O)OC)CCCN23)cc1 (some centres undefined)	-0.7	/	0.2	/	-0.1	/	/	8.7	4.9	3.0
O=C1NC(c2ccccc2)CCO1 (centres undefined)	7.0	7.4	-4.6	-5.9	2.0	-2.9	/	5.8	-0.9	-6.4
Cc1c(C(=O)OCC(C)(C)CN(C)C)oc2ccccc12	-2.4	1.9	/	7.9	0.3	-13.4	2.2%	/	/	/

Going on with the list:
SMILES	Beta apoptosis	RanGTP-Imp inh	MLL AF4-AF9 inh	T cruzi inh	A1 inh	Calb FLC	Vif TR-FRET	Ecoli rRNA inh	Ecoli rRNA inh OD600	Ecoli rRNA inh RFP
O=C(CN1CCN(c2ccc(F)cc2)CC1)NCC1CCCO1 (centres undefined)	/	/	/	-0.9	1.3	-7.2	-3.7%	/	/	/
COC(=O)c1ccccc1NS(C)(=O)=O	-4.6	/	-1.0	/	1.4	/	/	7.2	7.6	-5.3
Cc1nc([N+](=O)[O-])c(Br)n1CC(=O)c1ccc2ccccc2c1	/	-2.9	/	23.0	1.4	31.6	24.9%	/	/	/
COc1ccc(C2CC(c3ccccc3)Nc3nc(N)nn32)cc1 (centres undefined)	-5.1	?	/	45.1	-1.0	-1.8	1.3%	/	/	/
COc1cc(Nc2c3c(nc4ccccc24)CCCC3)cc(OC)c1OC	-5.6	-3.0	8.0	41.1	0.2	2.5	32.1%	4.8	-7.7	-1.0
COc1ccc(OC)c(-c2nc(C(=O)NC3CCN(Cc4ccccc4)CC3)cc3c2[nH]c2ccccc23)c1	/	4.6	8.4	41.9	0.8	-1.9	/	9.8	2.7	22.2
Cc1ccc(-c2csc(N(C)C(=O)c3c(C)nn(-c4ccccc4)c3Cl)n2)cc1	/	7.7	1.7	35.1	0.0	-5.6	?	1.8	24.7	-1.1
O=C(Nc1nccs1)c1cc(N2CCOCC2)nc2ccccc12	-12.2	3.1	/	-3.7	-0.5	5.2	3.8%	/	/	/
Cc1cccc(Cn2c(C(C)(C)C)cc3cccnc32)c1	15.3	-2.6	/	2.0	1.5	-19.6	0.1%	/	/	/

High-throughput results from PubChem BioAssay.
